# Bioassay records as filed in PubChem.
# TAR Tat displ – HIV-1 TAR-Tat binding disruption; HIV-1 TAR RNA, Tat peptide displacement FRET; hits give high values; z-score (concentration not given with the values); actives 0.6% (n = 100,000);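 further: score is relative to mean and SD of negative controls; some compounds called inactive have numbers as strong as hits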
# CDC25B CDK2 inh – human CDC25B-CDK2/CyclinA binding inhibition | AID 1259370 | z-score (no concentration beside the values) | HTRF CDC25B-CDK2/CyclinA binding, anti-His/anti-Flag; hits give high values | actives 0.72% (n = 94,000) | P30305+P24941;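 further: score is relative to mean and SD of negative controls; strong numbers were not always called active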
# * hit, by the source's call; · = no result given; & = joins results of further samples.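 How the source made its calls: active means z-score from 3 up in half or more of its runs; inactive means the rest.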
SMILES,TAR Tat displ,CDC25B CDK2 inh
Cc1cc(NS(=O)(=O)c2ccc(NC(=O)c3nn(-c4ccccc4)ccc3=O)cc2)nc(C)n1,0.69,-0.78
O=C(CC1(O)C(=O)Nc2ccc(Cl)cc21)c1cccc2ccccc12 (stereo not drawn),0.73,-0.71
CCC(=O)N1c2ccccc2CC1C(=O)NC(C)C (stereo not drawn),1.5,·
CCOc1ccc(OCC)c(NC2c3ncccc3C(=O)N2c2ccc(OC)cc2)c1 (stereo not drawn),2,·
COc1ccc(CN2N=NC3C(=O)N(c4ccc(OC)c(Cl)c4)C(=O)C32)cc1 (stereo not drawn),0.45,-0.64
CCCn1c(C)ccc(-c2noc(CCCC(=O)N3CCCC3)n2)c1=O,0.64,-1.3
C=C(C)[C@@H]1CC[C@]2(CO)CC[C@]3(C)[C@H](CCC4[C@@]5(C)CC[C@H](O)C(C)(C)C5CC[C@]43C)C12 (stereo partly drawn),3,·
O=C(Nc1ccc(Br)cc1F)N1CCCC(CN2CCc3ccccc3C2)C1 (stereo not drawn),-0.71,·
O=C(NCc1csc(-c2ccccc2)n1)[C@H]1CSCN1C(=O)c1ccccc1Cl,2.2,·
Clc1ccc(Cc2nnc3sc(-c4cccnc4)nn23)cc1,1.9,-1.8
CCCCN(C)CCCNC(=O)c1sc2nc(C)cc(C)c2c1-n1cccc1,-1.1,-2.1
Cc1cc(CSCC(=O)NCc2ccco2)cs1,0.45,·
O=C(CCn1c(=S)oc2ccccc21)Nc1ccc2c(c1)OCCO2,·,-0.83
Cc1ccc(-c2nn3c(=O)cc(N4CCN(C(=O)c5ccccc5C)CC4)nc3s2)cc1,0.16,·
CCCCC(CC)CN1CN(CC(CC)CCCC)CC(C)(N)C1 (stereo not drawn),1.6,·
COc1ccc2cc3c(nc2c1)N(C(=O)c1cccc(Br)c1)CC3,-0.61,-3.1
Nc1cccc(-c2nc3cc4sc(-c5cccc(N)c5)nc4cc3s2)c1,0.79,-2.8
Cc1ccc(-c2nn3c(C)nnc3s2)cc1C,-1.4,-1.4
O=C(Nc1cc(F)ccc1F)C1CCN(C(=O)N2CCOc3ccccc32)CC1,1.9,·
Cc1nonc1NC(=O)COc1ccc(Cl)cc1,0.66,-1.1
Cn1c(CC(=O)NC(C)(C)CO)c(Sc2ccccc2)c2ccccc21,-0.45,-0.26
CC(C)(C)NC(=O)c1oc2ccccc2c1NC(=O)c1cc(-c2cccs2)on1,0.08,0.17
O=c1c(S(=O)(=O)c2ccc(F)cc2)c[nH]c2cc(F)ccc12,1.2,-2.6
COc1ccc(-c2cn3c4ccccc4nc3n2CCN2CCN(C)CC2)cc1,·,-1.4
Cc1cccn2c(=O)c(C(=O)NCCC3=CCCCC3)cnc12,1.6,·
Cc1ccc(-c2noc3ncnc(NCCCN4CCCC4)c23)cc1,1.5,·
Cc1ccc(S(=O)(=O)N2CCN(c3cc(N4CCCCC4)nc(C)n3)CC2)c(C)c1,-0.28,-0.61
COc1ccc(NC(=O)Nc2nc3c(s2)CCCC3)c(OC)c1,0.41,·
S=c1nc(-c2ccccc2)oc2c1CCCC2,2.6,-1.8
O=C1OC(Nc2ccccc2Cl)c2ccccc21 (stereo not drawn),-0.02,-0.31
O=C(Nc1ccc(Br)cc1)N1CC=C(c2c[nH]c3ccccc23)CC1,-6.8,·
COCCCNc1ncnc2sc(C(=O)O)c(C)c12,4.3,·
NC(=O)CSc1nc2ccc(NC(=O)c3ccco3)cc2s1,1.8,12*
COc1ccc(/C=N/Nc2nc(C)cc(=O)[nH]2)c(OC)c1,·,0
CCOC(=O)c1c(S(=O)(=O)N2CCCC(C(=O)NCc3cccs3)C2)c(C)n(CC)c1C (stereo not drawn),1.5,·
CCC(=O)Nc1sc2c(c1C(=O)OC)C(C(=O)OC)CC2 (stereo not drawn),0.48,-2.7
CC(C)(C)NS(=O)(=O)c1ccc(NC(=O)N2CCCC2)cc1,0.4,·
CCN1CCN(c2ncc3c(n2)CCN(Cc2ccc(Br)cc2)C3)CC1,0.37,·
COc1cc2c(cc1OC)CN([C@H]1CS(=O)(=O)C[C@@H]1S(=O)(=O)c1ccc(Cl)cc1)CC2,-0.92,-1.1
CCN(CC)Cc1c(O)ccc2c(=O)c(-c3ccccc3)coc12,-0.03,-1.2
Cc1cc(F)ccc1NS(=O)(=O)c1ccc2c(c1)CC(C)N2C(=O)C1CC1 (stereo not drawn),-0.05,·
CCOC(=O)N1CCC(N2CCCC(C(=O)N3CCCC3)C2)CC1 (stereo not drawn),-0.11,-1.1
Cc1cccn2c(=O)c(NC(=O)c3ccc(F)cc3)cnc12,0.21,0.68
CC1=C(c2cccc(Br)c2)S(=O)(=O)NC1=NC1CCN(Cc2ccccc2)CC1,-0.98,0.61
Fc1cccc(Cl)c1C1CC(c2cccnc2)Nc2nnnn21 (stereo not drawn),·,-2.7
Cc1oc2ccc(OC(=O)c3ccco3)cc2c1C(=O)OC(C)C,·,-1.1
COC(=O)c1ccc(C2CC(=O)Nc3c2c(=O)nc(SCc2ccc(Cl)cc2)n3C)cc1 (stereo not drawn),1.1,0.38
COc1cc2c(cc1OC)C1C(C(=O)Nc3ccc(Cl)cn3)c3ccccc3C(=O)N1CC2 (stereo not drawn),0.32,-1.3
CC1CCCC(N(C)C(=O)c2cc(S(=O)(=O)N3CCc4ccccc43)cn2C)C1C (stereo not drawn),1.6,0.55
Cc1occc1-c1nnc(SCC(=O)N2CCN(c3ccc(F)cc3)CC2)o1,1.7,-2.2
Cc1cc(C)cc(-n2nnc(S(=O)(=O)c3ccccc3)c2C)c1,0.33,-2.3
CCCCCCCOC(=O)C1=C(C)Nc2nnnn2C1c1ccc(Br)cc1 (stereo not drawn),-0.86,-0.17
NC(c1ccccc1)c1nnc(-c2ccccc2)o1 (stereo not drawn),-0.56,-4.5
O=C(Cn1c(=O)sc2ccccc21)Nc1nccs1,1.2,0.1
O=C(c1cccc(O)c1)N1N=C2CCCCC2C1(O)C(F)(F)F (stereo not drawn),·,1.2
COc1ccc(S(=O)(=O)NCCc2nnc3ccc(SCc4cccc(Cl)c4)nn23)cc1,2.2,·
CN1c2ccc(Cl)cc2-c2nc(SCC(=O)Nc3cccc(F)c3)ncc2S1(=O)=O,0.99,·
O=C(Nc1ccc(O)c(-c2nc3ccccc3s2)c1)C(c1ccccc1)c1ccccc1,·,-2.5
Cc1nc(C)c(C(=O)Nc2nc(-c3ccc(C)c(C)c3)cs2)s1,1.4,1.5
Cc1cc(C)cc(NC(=O)CSc2nn3c(=O)c(C(C)(C)C)nnc3s2)c1,0.59,·

# The results go on.
SMILES,TAR Tat displ,CDC25B CDK2 inh
CCOC(=O)c1c(C)[nH]c(C)c1S(=O)(=O)NCC(=O)N1CCCC(C)C1 (stereo not drawn),0.19,·
O=C(NC1CCCC1)c1ccc2c(c1)N(Cc1ccccc1)CCS2,·,-0.7
COc1ccc2nc(NC(=O)NC3COc4ccccc4C3)sc2c1 (stereo not drawn),1.3,·
COCCn1c(CCCc2nc3cccnc3n2CCOC)nc2cccnc21,-6.4,·
CN1C(C(=O)c2ccccc2)=C(OC(=O)c2ccccc2Br)c2ccccc2S1(=O)=O,1.3,0.51
COc1ccc(C2C(Oc3ccccc3)C(=O)N2c2ccc(F)cc2)cc1OC (stereo not drawn),0,-0.77
CCn1ccc2cc(S(=O)(=O)N3CCC(C(=O)N4CCCC4)CC3)ccc21,1.2,·
CCOC(=O)c1c(C)oc2ncnc(NC(C(=O)OCC)C(C)O)c12 (stereo not drawn),-0.22,1.1
COc1ccc(OC)c(NC(=O)Cc2ccc(NC3=NC4CS(=O)(=O)CC4S3)cc2)c1 (stereo not drawn),1.3,-0.38
Cc1cc(C)c2sc(N(CCN(C)C)C(=O)c3ccco3)nc2c1,-1.5,·
CCCC(=O)N1c2ccccc2C(=C2SC(C(=O)OC)=C(C(=O)OC)S2)C(=S)C1(C)C,0.88,-4.6
CCOc1ccc(Nc2cc(N3CCC(=O)CC3)c3noc4c3c2C(=O)c2ccccc2-4)cc1,-0.63,-1.5
Fc1ccccc1C1CC(c2cccc(Br)c2)Nc2nnnn21 (stereo not drawn),1.2,·
COc1ccc(C2CC(=O)C3=C(C2)NC(C)=C(C(=O)OC2CCCC2)C3c2ccncc2)cc1 (stereo not drawn),0.32,-1.4
COc1ccc(Cc2nc(-c3ccc(Br)cc3)n[nH]c2=O)cc1,0.84,·
Cc1c2c(=O)n(C)ncc2c(-c2ccccc2)n1-c1ccc([N+](=O)[O-])cc1,·,-1
CNC(=O)c1c(NC(=O)c2cc(=O)c3ccc(C)c(C)c3o2)sc2c1CCCC2,0.48,-1.1
Cc1ccc2nc(CSc3ccccc3NS(=O)(=O)c3cnc[nH]3)cc(=O)n2c1,1.8,·
COc1ccc(-c2nc3cnccn3c2Nc2ccc(OC)c(OC)c2)cc1,0.29,-0.54
NCCn1c(C(F)(F)F)nc2ccccc21,0.18,·

# As a short view, some entries already given:
SMILES,TAR Tat displ,CDC25B CDK2 inh
CCn1ccc2cc(S(=O)(=O)N3CCC(C(=O)N4CCCC4)CC3)ccc21,1.2,·
CCOC(=O)c1c(C)oc2ncnc(NC(C(=O)OCC)C(C)O)c12 (stereo not drawn),-0.22,1.1
COc1ccc(OC)c(NC(=O)Cc2ccc(NC3=NC4CS(=O)(=O)CC4S3)cc2)c1 (stereo not drawn),1.3,-0.38
Cc1cc(C)c2sc(N(CCN(C)C)C(=O)c3ccco3)nc2c1,-1.5,·
CCCC(=O)N1c2ccccc2C(=C2SC(C(=O)OC)=C(C(=O)OC)S2)C(=S)C1(C)C,0.88,-4.6
CCOc1ccc(Nc2cc(N3CCC(=O)CC3)c3noc4c3c2C(=O)c2ccccc2-4)cc1,-0.63,-1.5
Fc1ccccc1C1CC(c2cccc(Br)c2)Nc2nnnn21 (stereo not drawn),1.2,·
COc1ccc(C2CC(=O)C3=C(C2)NC(C)=C(C(=O)OC2CCCC2)C3c2ccncc2)cc1 (stereo not drawn),0.32,-1.4
COc1ccc(Cc2nc(-c3ccc(Br)cc3)n[nH]c2=O)cc1,0.84,·
Cc1c2c(=O)n(C)ncc2c(-c2ccccc2)n1-c1ccc([N+](=O)[O-])cc1,·,-1
CNC(=O)c1c(NC(=O)c2cc(=O)c3ccc(C)c(C)c3o2)sc2c1CCCC2,0.48,-1.1
Cc1ccc2nc(CSc3ccccc3NS(=O)(=O)c3cnc[nH]3)cc(=O)n2c1,1.8,·
COc1ccc(-c2nc3cnccn3c2Nc2ccc(OC)c(OC)c2)cc1,0.29,-0.54
NCCn1c(C(F)(F)F)nc2ccccc21,0.18,·

# (further entries)
SMILES,TAR Tat displ,CDC25B CDK2 inh
COc1cccc(CN2CCc3nc(N4CCN(c5ncccn5)CC4)ncc3C2)c1,1.4,·
O=C1CCc2cc(S(=O)(=O)Nc3ccc(Oc4ccccc4)cc3)cc3c2N1CCC3,0.79,·
COc1cc2nc(N(C)CCCNC(=O)C3CCCO3)nc(N)c2cc1OC (stereo not drawn),0.1&-0.71,-0.81
C=CCn1c(SCC(=O)NCCCN2CCOCC2)nc2sc3c(c2c1=O)CCC3,·,-5.6
Clc1ccc(Cn2c(C3CCCO3)nc3ccccc32)cc1 (stereo not drawn),0.11,-1.1
Cc1ccc(-n2c(C)cc(C#N)c2C)cc1,0.65,-0.95
C(=Nc1cccc2ccccc12)c1ccccc1,·,-2
CCCCN(C)S(=O)(=O)c1ccc(-c2cc(C(F)(F)F)on2)s1,1.3,·
O=S(=O)(NCCc1nc2ccccc2n1S(=O)(=O)c1ccccc1)c1ccccc1,1.1,-0.5
O=C1CCCN1CCCNc1nc2c(-c3cccc(F)c3)nnn2c2ccc(Cl)cc12,-1.4,-0.43
O=C(CN1CCOCC1)N1CCCc2c1c(=O)oc1ccc(O)cc21,·,-0.55
CC(=O)c1ccc(OS(=O)(=O)CS(=O)(=O)Oc2ccc(C(C)=O)cc2)cc1,·,-2
Cc1c(C)n(CC(C)C)c2ncn3nc(-c4ccc(Cl)cc4)nc3c12,1.8,-1.8
O=C(CSc1ncnc2c1sc1cccc(F)c12)NCCN1CCOCC1,0.69,·
O=c1c2sccc2[nH]c(=S)n1CC1CCCO1 (stereo not drawn),·,-0.26
CC(C)Cn1cc(C(=O)N2CCCC2)c2c3ccccc3n(C)c2c1=O,·,0.26
Cn1c(C(=O)NC2CCCCC2)c(N2CCCC2=O)c2cc(F)ccc21,0.11,·
O=c1[nH][nH]c(=O)c2cc(N3CCCC3)ccc12,·,-3.9
Cc1ccn2c(=O)c(C(=O)NCCN3CCOCC3)c(O)nc2c1,1.8,-1.6
Cc1nn(CC(=O)NCc2ccccc2Br)c(=O)c2cc3occc3n12,0.86,-1.6
Cc1nc(-c2ccc(S(=O)(=O)N3CCc4ccccc4C3)cc2)co1,1.3,·
C/C(=N\NC(=O)O)c1ccc(Oc2ccccc2)cc1,·,1
CC1CCCCN1C(=O)CSc1nc(-c2ccccc2F)nc2cc(=O)[nH]n12 (stereo not drawn),-0.55,·
Cc1ccc(OCC(O)CNCc2ccco2)cc1C (stereo not drawn),·,-2.9
CCCOC(=O)COc1ccc2c(=O)c(-c3ccc(OC)c(OC)c3)c(C(F)(F)F)oc2c1,0.19,-1.2
CC1(C)CC(=O)c2cc(NC(=O)c3ccc(F)cc3)c(=O)oc2C1,-0.08,-3.9
COC(=O)c1ccc(N2C(=O)CC(N3CCN(Cc4ccc5c(c4)OCO5)CC3)C2=O)cc1 (stereo not drawn),1.1,-0.19
COc1cc(C2C(C#N)=C(N)OC3=C2C(=O)CC(c2ccccc2)C3)cc(OC)c1OC (stereo not drawn),·,0.94
O=C(Nc1cccc(C(=O)Nc2ccc(S(=O)(=O)O)c3cc(S(=O)(=O)O)cc(S(=O)(=O)O)c23)c1)Nc1cccc(C(=O)Nc2ccc(S(=O)(=O)O)c3cc(S(=O)(=O)O)cc(S(=O)(=O)O)c23)c1,·,4.6*

# Sorted by count of non-hydrogen atoms (rising): 3 of the compounds above.
SMILES,TAR Tat displ,CDC25B CDK2 inh
Cc1cc(F)ccc1NS(=O)(=O)c1ccc2c(c1)CC(C)N2C(=O)C1CC1 (stereo not drawn),-0.05,·
Cc1occc1-c1nnc(SCC(=O)N2CCN(c3ccc(F)cc3)CC2)o1,1.7,-2.2
O=C(Nc1cc(F)ccc1F)C1CCN(C(=O)N2CCOc3ccccc32)CC1,1.9,·
